# Vif TR-FRET = HIV-1 Vif–A3G interaction blockers – biochemical, TR-FRET, GST-Vif 1-94, biotin-A3G peptide, dose response retest, primary screen (AID 1117319); TR-FRET GST-Vif / biotin-A3G peptide binding; higher % means a stronger effect; test concentration not given here; strong numbers were not always called active; one-dose inhibition, %; IC50 in µM for titrated hits; 0.57% of 260,000 active;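 active = above the screen mean plus three standard deviations and confirmed in dose response; inconclusive = results disagree or hit not tested in dose response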;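 also: Vif residues 1-94 fused to GST binding biotinylated APOBEC3G peptide 110-148; 0% = full assay without inhibitor and 100% = GST in place of GST-Vif; retest series ran down from 100 µM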
# LANA-H2B inh = blocks KSHV LANA binding to histone H2A/H2B | cell-free LANA-H2A/H2B peptide, fluorescence polarization | 0.6% of 320,000 active | inhibition, % (no concentration beside the values) | Q9QR71; in the data active = inhibition mostly above about 10%, no sharp cut-off; inactive = mostly below about 6.7%;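 also: stock transfer was 7.5 nL into about 10 µL; 0% = median of vehicle wells and 100% = median of positive control wells; one replicate is shown; the record names a cut of 25% in any replicate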
# Bfl-1 A1 inh = inhibitors of the anti-apoptotic protein A1, read as caspase activation. MEF A1-2A-BIM cells, Caspase-Glo 3/7 luminescence, 3 h; percent of clofoctol response, vehicle zero. caspase activation, % (no concentration beside the values). 0.066% of 330,000 active;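 active = over half of replicate activation scores above 10%, or exactly half above 10 with the replicate mean above 10; inconclusive = replicate mean below 10 yet half the replicates above 10; inactive = over half of replicates below 10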;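 also: wells of about 30 µL received 50 nL stock; many hits fall short of the cut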
# Beta cell apopt = beta cell apoptosis inhibition; INS-1E cytokine-induced death, ATP luminescence, 48 h; percent of positive-control rescue, neutral wells zero; protection from apoptosis, % (concentration not given with the values); 0.8% of 300,000 active; AID 435005;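 active = all replicates at 75% or more, or half of them and the mean; inconclusive = half reach 75% but not the mean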;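 also: 0% = cytokine-treated negative control wells and 100% = positive control rescue; higher means more ATP so stronger rescue from cytokine killing; wells of about 40 µL received 100 nL stock; the first replicate is given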
# MLL AF4-AF9 inh = inhibitors of human MLL-AF4/AF9 interaction. P42568. AlphaScreen, biotin-AF4 peptide binding to FLAG-AF9. inhibition, % at 10 µM. 0.47% of 350,000 active. AID 651704;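 active = every replicate reaching a set inhibition limit, whatever the replicate mean, cut at about 25% in these data; inconclusive = mean inhibition reaches that limit but some replicates miss it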;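 also: 0% = plate neutral control median and 100% = total signal loss; the record names both 10 and 1 µM as test concentration; the first replicate is given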
# Target sequence (P42568 whole entry, looked up): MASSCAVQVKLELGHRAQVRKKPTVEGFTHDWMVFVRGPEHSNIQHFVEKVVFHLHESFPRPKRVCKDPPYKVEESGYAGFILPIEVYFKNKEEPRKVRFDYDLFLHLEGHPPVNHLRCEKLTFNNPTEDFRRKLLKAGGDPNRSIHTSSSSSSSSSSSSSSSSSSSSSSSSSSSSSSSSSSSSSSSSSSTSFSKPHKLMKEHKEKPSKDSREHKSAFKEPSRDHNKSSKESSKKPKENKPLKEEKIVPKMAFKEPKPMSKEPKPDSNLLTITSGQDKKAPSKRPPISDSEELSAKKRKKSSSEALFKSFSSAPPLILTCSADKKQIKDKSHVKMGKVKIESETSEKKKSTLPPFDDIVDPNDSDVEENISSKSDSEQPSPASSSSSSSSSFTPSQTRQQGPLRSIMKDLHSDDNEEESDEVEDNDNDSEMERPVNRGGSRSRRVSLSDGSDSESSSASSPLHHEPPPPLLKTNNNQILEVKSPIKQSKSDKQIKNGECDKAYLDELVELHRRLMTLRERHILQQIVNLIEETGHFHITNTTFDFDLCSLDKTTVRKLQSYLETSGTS
# RanGTP-Imp inh = disruptors of Ran-importin-beta complex formation – biochemical, FRET, CFP-Ran, YFP-importin-beta, homogeneous, primary screen | 1.1% of 300,000 active | cell-free CFP-Ran/YFP-importin-beta FRET ratio | inhibition, % (test concentration not listed) | AID 2216;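 active = most replicates above 15%; inconclusive = exactly half above 15%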;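 also: 0% = DMSO wells and 100% = Ran loaded with GDP instead of GTP; wells of about 40 µL received 100 nL stock; the first replicate is given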
# T cruzi repl = blocks replication of Trypanosoma cruzi | T. cruzi beta-gal in NIH3T3, luminescence, 90 h | inhibition, % (concentration not given with the values) | 1.4% of 300,000 active | AID 1885;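 active = mean inhibition across valid replicates above about 55%, limit read from the data; inconclusive = mean below that limit but half or more replicates reach it; inactive = mean below it, under half of replicates reach it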;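 also: signal also drops with host cell toxicity which is not excluded here; 0% = plate median of DMSO wells and 100% = zero luminescence signal; higher percent means less beta-gal luminescence so fewer parasites; stock transfer was 50 nL into about 50 µL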
# Calb FLC = C. albicans growth modulation with fluconazole; AID 1979; growth inhibition, % (concentration not given with the values); C. albicans CaCi-2 (fluconazole-resistant clinical isolate) + fluconazole, Alamar Blue growth, 48 h; 0.57% of 300,000 active;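 active = most replicates above 75%; inconclusive = exactly half above 75%; inactive = most below 75%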;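 also: all wells also contain fluconazole at 8 µg/ml as a sub-toxic cotreatment; 0% = median of DMSO wells and 100% = median of geldanamycin control wells; wells of about 8 µL received 7.5 nL stock; the first replicate is given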
# Numbers without * were called inactive; u = inconclusive; x = no result given; & = joins results of further samples.
SMILES,Vif TR-FRET,LANA-H2B inh,Bfl-1 A1 inh,Beta cell apopt,MLL AF4-AF9 inh,RanGTP-Imp inh,T cruzi repl,Calb FLC
COC(=O)c1c(NC(=O)CN2CCN(c3ccccc3OC)CC2)c2cc(C)ccc2n1C,-4.7%,-4.2,0.2,10.3,x,-1.4,-0.1,-5.1
CCn1c(SCC(=O)N(C)CC(=O)Nc2cccc(OC)c2)nnc1-c1ccco1,-5.7%,2.6,0.1,-4.5,0.8,-6.3,-8.3,7.7
C[C@@H](CC#N)CN1CC[C@H](C(C)(C)C)CCC1=O,x,0.7,-0.2,-2.4,-2.3,-0.9,-10.6,10.8
Cn1c(=O)c(=O)n(C)c2cc(S(=O)(=O)N3CCN(c4ccccc4F)CC3)ccc21,32.6%,-2.1,1.0,5.6,x,3.5,-9.6,7.1
O=C(CSc1ccccc1)Nc1ccc(S(=O)(=O)NCC2CCCO2)cc1 (stereo not drawn),3.0%,-6.1,0.6,-1.7,-0.5,0.9,9.5,-8.4
O=C(Nc1nncs1)c1cccc(S(=O)(=O)N2CCOCC2)c1,4.0%,-8.9,-0.1,x,x,-0.3,-20.2,25.3
COc1ccc(S(N)(=O)=O)cc1C(=O)N1CCCC1,x,0.5,-0.1,-1.9,-0.3,0.2,-6.3,-5.4
COC(=O)c1ccc(/C=N/NC(=O)CNc2cccc(C)c2)cc1,1.7%,0.3,-0.7,0.0,0.3,-3.6,7.8,2.7
Cc1ccc(C)c(NC(=S)N2CCC(NC(=O)c3ccc(F)cc3)CC2)c1,-0.8%,-5.0,-1.0,-2.4,-1.9,1.2,3.4,7.0
O=C(c1ccc(Cl)cc1Cl)N1CCc2ccccc21,7.2%,-7.9,0.0,0.3,-2.0,0.7,-1.7,4.5
CC(C)Cc1ccc(CN2CCCC(NC(=O)CCN3CCCO3)C2)cc1 (stereo not drawn),17.6%,-1.7,0.4,0.3,4.5,-1.3,50.5,87.6*
COc1ccc(Cl)cc1NC(=O)CSc1nnc(CNC(=O)c2cccs2)o1,x,5.1,-1.1,-0.6,-3.5,26.1,-6.2,-8.2
Cc1ccc(NC(=O)N2Cc3ccccc3CC2C(=O)NC(C)(C)C)cc1 (stereo not drawn),0.7%,5.8,-0.1,-7.8,x,-3.0,-11.6,15.7
Cc1ccc(-c2noc(CSc3nnc(-c4ccccc4)n3C)n2)cc1,0.5%,2.4,0.1,0.4,x,-2.0,25.8,-9.5
O=C(Cn1c(=O)oc2ccccc21)N1CCCCC1,u,-4.3,1.0,-6.1,x,3.5,-8.4,-25.2
COC(=O)c1ccc([C@H]2C=C(C(=O)O)O[C@@H](OCc3ccc(CO)cc3)C2)cc1,-0.8%,3.0,-1.0,-6.3,-6.8,-3.2,-3.2,-3.3
COc1ccc2nc(SCC(=O)NC3(C#N)CCCCC3)[nH]c2c1,-2.9%,4.2,0.7,-0.9,1.1,x,-9.0,-3.7
O=C(NCCc1ccccc1)C1CCCN(C(=O)NC2CCCCC2)C1 (stereo not drawn),0.6%,3.0,0.1,-0.4,x,-0.7,-0.4,-15.0
COc1cc(C(=O)Nc2ccc3c(c2)N(C(=O)CCN(C)C)c2ccccc2CC3)cc(OC)c1OC,21.3%,-0.8,-2.1,1.4,5.6,3.3,78.7*,-24.8
CCO[C@@H]1OC(C(=O)NCc2ccccc2)=C[C@H](c2ccccc2)[C@H]1CCCO,24.0%,-0.7,1.1,-5.2,-3.7,1.2,-4.7,7.6
Cc1cccc(NC(=O)Cn2c(=O)oc3ccccc32)c1,3.1%,2.5,-0.6,-5.0,x,-1.0,3.3,-22.4
COc1ccc(N2CC(C(=O)N[C@H](C(=O)NC(C)c3ccccc3)C(C)C)CC2=O)cc1 (stereo partly drawn),x,1.0,3.1,-1.6,-2.8,1.4,-7.3,-2.9
COCCCn1c2nc3ccccc3nc2c2c(=O)n(Cc3ccccc3Cl)cnc21,x,-0.4,1.4,3.2,x,u,7.7,0.2
Cc1ccccc1NS(=O)(=O)c1cc(OCC(N)=O)c(C)cc1Cl,7.9%,6.1,1.9,0.6,-0.7,1.6,2.8,118.2*
O=C(NC1CC(=O)c2sccc21)c1ccc(Cl)cc1Cl (stereo not drawn),0.6%,1.4,1.0,-2.3,-2.8,0.7,-3.5,-17.4
O=C(COC(=O)C1CCCCC1)Nc1ccc([N+](=O)[O-])cc1,11.4%,-1.8,-0.5,-4.2,2.2,5.2,-13.3,-5.7
COc1ccc(Cl)cc1NC(=O)CC(=O)Nc1cc(Cl)ccc1OC,-4.6%,4.1,0.3,9.8,0.3,8.7,37.3,-4.5
CCCn1c(SCc2ccc(C(=O)OC)o2)nc2ccccc2c1=O,11.5%,2.7,-0.5,-4.2,-14.4,0.3,9.9,22.2
O=C(COC(=O)c1ccccc1)NCc1ccco1,20.8%,-3.1,1.1,-4.7,x,-1.6,-2.3,-0.3
Cc1onc(-c2ccccc2Cl)c1C(=O)N1CC(C)OC(C)C1 (stereo not drawn),15.7%,3.2,0.3,-1.3,-47.7,u,-2.0,9.8
COc1ccccc1C(=O)NCC(C)(C)CN=C1NS(=O)(=O)c2ccccc21,x,5.3,0.5,-2.8,0.3,3.3,9.2,-6.2
COc1cc(C(=O)NCc2ccc3c(c2)cc(C)n3C)cc(OC)c1OC,13.8%,2.8,0.0,-1.1,1.8,u,3.0,18.0
CC(=O)Nc1ccc(S(=O)(=O)NNC(=O)COc2ccc(C(C)(C)C)cc2)cc1,13.0%,1.8,-0.4,2.3,x,4.1,-5.6,-13.7
O=C(Nc1nc(-c2ccc3c(c2)OCO3)cs1)C1COc2ccccc2O1 (stereo not drawn),-7.7%,2.1,1.2,-3.1,-13.4,5.0,1.5,6.9
CCCCCCCCC(=O)O,x,-3.9,-1.3,-2.5,x,3.6,-7.0,0.1
O=C(COC(=O)c1cnccn1)c1ccccc1,u,x,x,x,x,-6.2,3.3,3.7
COc1ccc(S(=O)(=O)N[C@@H](CC(C)C)C(=O)O)cc1,5.8%,-1.1,-1.0,-3.1,x,-5.0,-33.6,35.3
O=C(Cn1c(=O)oc2ccccc21)N1CCN(c2ccccc2)CC1,5.9%,2.2,-0.7,-0.6,x,-0.5,-4.0,-2.5
Cc1cc(C)c(-c2csc(NC(=O)CCCc3nc4ccccc4c(=O)[nH]3)n2)c(C)c1,-5.8%,1.6,0.4,49.6,-1.7,-3.3,22.1,7.2
CC(CC(=O)O)C(=O)c1ccc(Cl)c([N+](=O)[O-])c1 (stereo not drawn),18.3%,0.7,0.7,-12.6,-1.1,-0.4,-11.0,-8.7
CCCCNC(=S)N(Cc1c(C)noc1C)c1ccccc1,x,-4.9,-0.8,-0.3,-2.2,u,1.5,-2.0
CC(C)(C)SCCNS(=O)(=O)c1ccc(C#N)cc1,-0.7%,-3.1,-0.2,-6.9,-4.4,5.0,-6.8,0.4
O=C(NCc1ccc(F)cc1)C1CCCN(S(=O)(=O)c2cccc3nsnc23)C1 (stereo not drawn),1.7%,4.3,-0.1,-6.0,x,u,4.3,7.2
CC1CCCN(C(=O)CSCC(=O)Nc2nc(-c3cccs3)cs2)C1 (stereo not drawn),3.3%,-7.8,0.8,-10.3,-0.3,-4.0,-5.4,0.4
COCCNC(=O)NC(=O)COC(=O)c1ccc2[nH]c3c(c2c1)CCCC3,1.8%,0.9,-0.4,-7.7,4.7,2.4,-12.7,-26.5
Cc1cc(C(=O)Nc2c(C)cccc2C)n(-c2ccccc2)n1,14.1%,-1.1,0.0,2.3,-4.3,-3.6,-6.3,-1.4
COc1ccc(CN2C(=O)C(O)(CC(=O)c3c(C)n[nH]c3C)c3ccccc32)cc1OC (stereo not drawn),3.0%,-2.3,0.0,-2.2,x,x,x,x
COc1ccc(OC)c(Nc2ncnc3sccc23)c1,8.7%,-3.6,0.1,-6.5,3.5,-3.0,-4.0,x
Cc1ccc(NC(=O)NN2CCN(C)CC2)cc1C,x,-4.2,1.5,-11.2,-0.8,1.1,36.5,26.9
CCN(CC)C(=O)c1sc2[nH]c(=S)n(-c3ccccc3)c(=O)c2c1C,14.7%,4.3,-0.2,-5.4,0.7,0.6,-11.7,-3.8
Cc1cc(C)cc(N(C(=O)c2ccccn2)C(C(=O)NC2CCCCC2)c2ccncc2)c1 (stereo not drawn),x,x,x,x,0.9,4.3,2.1,1.1
COC(=O)COC(=O)c1ccc(Oc2nc(OC)nc(N(C)C)n2)cc1,u,4.6,0.3,-3.9,x,3.0,-24.5,40.3
CCOc1ccc(C(CC(=O)O)NC(=O)COc2ccc3ccccc3c2)cc1OC (stereo not drawn),-5.8%,3.4,0.4,0.2,-6.0,3.2,-1.2,-4.2
O=C(Nc1cccnc1)c1cc(-c2ccc(Cl)c(Cl)c2)on1,x,-0.1,-1.3,0.7,0.1,3.4,6.6,8.2
C#CCOCCOCCOCCNc1nc(N2CCN(C(=O)[C@H](CCCCN)n3cc(C(N)[C@H](C)CC)nn3)CC2)nc(N2CCN(C(=O)[C@H](CCC(=O)O)n3cc(C(N)[C@H](C)CC)nn3)CC2)n1 (stereo partly drawn),-9.5%,1.6,-0.6,-5.7,x,1.6,-20.5,-14.8
COc1ccc2c(C)c(Cc3ccccc3)c(=O)oc2c1OC,-14.3%,-2.2,0.8,6.6,-1.2,0.9,16.5,5.2
C=CCCOc1ccccc1C(N)=O,-8.9%,-2.1,1.0,-3.9,1.3,2.8,1.4,3.0
CNC(=O)N1CCC(C(=O)c2c(C)c(C)c(C)c(C)c2C)CC1,-4.9%,-4.3,1.2,-8.9,-4.9,0.7,0.4,3.0
COc1ccc(-c2nc(C#N)c(NCC3CCCO3)o2)cc1 (stereo not drawn),23.1%,0.7,-1.2,2.2,x,0.6,-10.7,-18.0
Cc1cccc(NC2=NC(=S)N(CC#N)C23CCCCC3)c1,x,-3.7,0.1,-0.8,x,0.6,-2.0,23.0
# Later entries
SMILES,Vif TR-FRET,LANA-H2B inh,Bfl-1 A1 inh,Beta cell apopt,MLL AF4-AF9 inh,RanGTP-Imp inh,T cruzi repl,Calb FLC
COc1cc(-c2nc3n(n2)C(c2cccc(OC)c2OC)C2=C(CCCC2=O)N3)cc(OC)c1OC (stereo not drawn),1.2%&-6.1%,-4.1,0.5,6.2,x,2.4,-9.6,-3.5
CCN(CC)c1ccc2c(c1)OC(N)=C(C#N)C2c1cccnc1 (stereo not drawn),4.6%,-41.2,0.2,3.3,x,-126.6,10.5,-2.5
CCOc1ccc(Cc2c(Cl)nc(SC)nc2N(C)C)cc1,21.0%,4.7,0.7,22.7,-2.3,-5.3,-53.8,5.1
Nc1ccc(OCc2ccco2)cc1,12.2%,-2.7,0.1,0.2,-4.2,2.9,-0.1,-1.6
O=C(Nc1ccc(C(O)(C(F)(F)F)C(F)(F)F)cc1)c1ccc(Cl)c([N+](=O)[O-])c1,17.2%,1.6,0.4,46.9,11.7,1.1,21.5,-1.3
Cc1nn(-c2ccccc2)c(C)c1NC(=O)COC(=O)c1ccc(S(=O)(=O)C(F)F)cc1,-2.5%,0.3,-0.5,0.2,-9.1,5.0,-20.6,3.9

# Source: PubChem
